# Bioassay records: PubChem, National Center for Advancing Translational Sciences (NCATS)
# HSD17B inh: inhibitors of human HSD17B10 dehydrogenase | Potency, µM (doses to about 57.1 µM), inactives show top-dose activity change, negative = inhibition, most hits filed as inhibitors | hit rate 7.6% among 75,000 | recombinant HSD17B10, NADH fluorescence kinetic; many of its hits are not listed in these tables | Q99714; active means well fitted inhibition curve with a large enough effect; inconclusive means small, poorly fitted or top-dose-only effect; inactive means no such curve, though single readings can be large or run the other way;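 further: the protocol describes HADH2 (HSD17B10) and not the HSD17B4 of the title; nearly all actives have a fitted effect of over 70% in size; most hits overshoot -100% by far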
#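 Enzyme plus compound, 15 min room temperature; substrate mix added (NAD+ 1 mM, beta-hydroxybutyryl-CoA 90 uM final); plates read kinetically for NADH fluorescence. HADH2 was His-tagged, E. coli-derived, 20 nM.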
# Starred values were filed as active, the others as inactive; ? = inconclusive; [ ] = another dose, or the depositor's remark. On the % scale 0 is the no-effect control and ±100 the full control effect; potency means the concentration at half of the fitted maximal effect. Not all compounds are listed; count on the stated rates, not on these rows.
smiles	HSD17B inh
CSc1nc2ccc3nc(NC(=O)c4cccs4)sc3c2s1	3.98µM*
O=C(CCn1ccc2ccccc21)Nc1ccc(N2CCOCC2)cc1	-6.2%
CC12CC(NC(=O)N1CCc1ccccc1)c1ccccc1O2 (stereo not drawn)	-6.9%
C1=C(CCNc2ncnc3nc[nH]c23)CCCC1	12.6%
O=C(Nc1ccc(Cl)cn1)c1cnn2cccnc12	-2.6%
O=C(O)CCC(=O)Nc1ccc(Br)cn1	2.6%
CC(NC(=O)C1CCC1)c1ccc(Cl)cc1 (stereo not drawn)	10.4%
COc1cccc(-n2c(Cc3cc(=O)[nH]c(=O)[nH]3)nnc2SC(C)C)c1	8.2%
CC(=O)Nc1nc2ccccc2n1CCN(C)C	4.5%
O=C(CN1C(=O)CCSc2ccccc21)Nc1ccc2c(c1)OCCO2	2.8%
CCOc1ccc(N/C(SC)=C(/C#N)C(N)=O)cc1	-4.2%
C[C@]1(C(=O)NCCCNc2ncc(C(F)(F)F)cc2Cl)C=C[C@@H](Cc2ccccc2)N1C(=O)c1ccccc1	-9.3%
CC1(C)OC(C(O)(c2ccccc2)c2ccccc2)C(C(O)(c2ccccc2)c2ccccc2)O1 (stereo not drawn)	2.0%[11.4 µM]
CCCC1(C(=O)OC)C=C2C(=C(C(C)C)C(=O)C2C)CN1 (stereo not drawn)	-11.6%
COC(=O)c1ccc(NC(=O)c2ccccc2NS(C)(=O)=O)cc1	12.8%
COc1ccc(-n2nc(C(=O)N3CCN(c4ccc(F)cc4)CC3)c3ccccc3c2=O)c(OC)c1	-21.6%
COC(=O)c1ccc(COc2ccc3c(C)c(C)c(=O)oc3c2C)o1	10µM*
O=C(CCc1ccc(S(=O)(=O)N2CCOCC2)cc1)Oc1ccccc1	-6.9%
CCOC(=O)C1CCN(c2c(NC3CCCc4ccccc43)c(=O)c2=O)CC1 (stereo not drawn)	-0.8%
COc1cc(OC)c(C2C(C(=O)N3CCOCC3)=C(C)NC3=C2C(=O)CC(C)(C)C3)cc1OC (stereo not drawn)	0.7%
CC1CCN(CCCNC(=O)Cc2c(C(=O)O)n(C)c3ccccc23)CC1	0.2%
C[C@H](NC(=O)Nc1ccc2c(c1)OCCO2)C(=O)O	4.0%
Cc1ccc2c(CC(=O)OCc3nc(N)nc(Nc4ccccc4C)n3)coc2c1	-6.4%
COc1ccc2c(c1)c(CC(=O)O)c(C)n2C(=O)c1ccccc1	-8.9%
COCCn1c(CCC(=O)O)nc2c1c(=O)[nH]c(=O)n2CC(C)C	1.3%
CCSc1sccc1C1C(C#N)=C(N)N(c2cccnc2)C2=C1C(=O)CCC2 (stereo not drawn)	31.6µM*
Nn1c(SCC(=O)N2CCOCC2)nnc1-c1ccc(Cl)cc1Cl	1.4%
CN(CC(=O)NC1CCCc2ccccc21)S(=O)(=O)c1ccc2c(c1)c(=O)n(C)c(=O)n2C (stereo not drawn)	-3.5%
COc1nc(N)nc(CC(=O)C2CC2)n1	4.2%
CC(C1CC1)N(C(=O)NC1CCS(=O)(=O)C1)c1ccccc1 (stereo not drawn)	15.1%
COC(=O)C/C=C\[C@@H](C)[C@@H](/C=N\O[C@@H](C)CN1CCCc2nc(C)c(C)cc21)NS(=O)(=O)c1ccc(C)cc1	?
CCN1CCN(Cc2ccc(NC(=O)CC3Oc4ccc(C)cc4NC3=O)cc2)CC1 (stereo not drawn)	4.2%
O=C(Cn1cnc2c(cnn2-c2ccccc2)c1=O)N1CCCc2ccccc21	-17.0%
CCOc1ccc(S(=O)(=O)NCCC(=O)NC2=NCCS2)cc1	-9.0%
O=C(O)Cn1cc(C(=O)c2cccs2)c2ccccc21	-2.3%
CCOC(=O)Cc1nnc(NC(=O)C(CC)Sc2nnc3c4ccccc4n(C)c3n2)s1 (stereo not drawn)	-11.3%
COC(=O)CCCC(=O)Nc1c(F)c(F)c(F)c(F)c1F	2.7%
O=C1C2CC=CCC2C(=O)N1CC(=O)N(Cc1ccccc1)C1CCS(=O)(=O)C1 (stereo not drawn)	7.8%
CC(C)C(=O)Nc1ccc(NC(=O)c2ccccc2Cl)nc1	11.3%
Cc1cc(C(=O)COc2cccc(-n3cnnn3)c2)c(C)n1-c1ccccc1	-3.4%

# Gathered by group, those above with an NH in an aromatic ring
smiles	HSD17B inh
C1=C(CCNc2ncnc3nc[nH]c23)CCCC1	12.6%
COc1cccc(-n2c(Cc3cc(=O)[nH]c(=O)[nH]3)nnc2SC(C)C)c1	8.2%
COCCn1c(CCC(=O)O)nc2c1c(=O)[nH]c(=O)n2CC(C)C	1.3%

# New compounds follow.
smiles	HSD17B inh
COc1cc(C2c3c(oc4ccccc4c3=O)C(=O)N2Cc2ccncc2)ccc1O (stereo not drawn)	?
CC(=O)NCCNc1ncncc1-c1ccccc1CN(C)C	-3.2%
COc1ccc(NCc2n[nH]nc2-c2ccccc2)cc1Cl	-6.9%
O=CN(CCN(C=O)CN1CCCCC1)CN1CCCCC1	-2.2%
Cc1cc(C(=O)N2CCN(c3ncccn3)CC2)c2cc(F)ccc2n1	?
CC1=C(C(=O)NC(C)C)C2(CCC(C)CC2)OC1=O (stereo not drawn)	4.2%
CCCOC(=O)CSc1nnc(-c2ccc(Cl)cc2Cl)o1	5.7%
COC(=O)c1c(F)c(F)c(N2CCOCC2)c(F)c1F	2.0%

# 4 entries drawn at random from the list so far:
smiles	HSD17B inh
CCOc1ccc(N/C(SC)=C(/C#N)C(N)=O)cc1	-4.2%
COCCn1c(CCC(=O)O)nc2c1c(=O)[nH]c(=O)n2CC(C)C	1.3%
COC(=O)C/C=C\[C@@H](C)[C@@H](/C=N\O[C@@H](C)CN1CCCc2nc(C)c(C)cc21)NS(=O)(=O)c1ccc(C)cc1	?
CSc1nc2ccc3nc(NC(=O)c4cccs4)sc3c2s1	3.98µM*

# Carrying on.
smiles	HSD17B inh
COc1cc(OC)cc(C(=O)Nc2ccccc2NC(C)=O)c1	4.5%
CC1(C)CC(=O)C2=C(C1)NC(=O)CC2c1cc2c(cc1Br)OCO2 (stereo not drawn)	10.2%
O=C(CSc1ccc2nnc(-c3cccnc3)n2n1)NCC1CCCO1 (stereo not drawn)	31.6µM*
COC(=O)c1ccc(COc2ccc(C3C4=C(CCCC4=O)Nc4onc(C)c43)cc2)cc1 (stereo not drawn)	20µM*
C=CCc1ccc(OC)c(OC)c1	-0.7%
CC1CCCCC1NC(=O)CSc1nnc(N)s1 (stereo not drawn)	-0.7%
O=C(Nc1ccc(F)cc1)N(Cc1nnc2n1CCCCC2)c1ccccc1	7.8%
CC1CCCC(NC(=O)CSc2nnc(N)s2)C1C (stereo not drawn)	9.6%
CC12CCC3c4ccc(OCc5ccccc5)cc4CCC3C1CC(O)C2O (stereo not drawn)	-1.2%
COC(=O)[C@@]1(Cc2ccccc2)[C@H]2c3cc(C(=O)N4CCCC4)n(CC4CC4)c3C[C@H]2CN1C(=O)c1ccccc1	-16.3%
Cc1ccc2c(c1)nnn2C1CCN(S(=O)(=O)c2ccc(C(=O)N(C)C3CCCCC3)cc2)CC1	4.2%
CC(=O)Nc1ccc(C2Nc3ccccc3C(=O)N2C2CCCCC2)cc1 (stereo not drawn)	31.6µM*
O=C(NCc1cccnc1)c1ccc(CS(=O)(=O)Cc2ccc(Cl)cc2)o1	-2.2%
c1ccc(-c2nnc(CSc3nnc(-c4cccs4)o3)o2)cc1	-4.5%
Cc1cccnc1NC(=O)COc1ccc2oc3c(c2c1)CCCC3	-9.8%
CSc1ccc(S(=O)(=O)Nc2ccc(N3CCOCC3)c(Cl)c2)cc1	-9.5%
C/C=C(/C)C(=O)OC1C(OC(C)=O)[C@@]2(CO)C(O)C[C@@]3(C)C(=CCC4[C@@]5(C)CCC(OC6OC(C(=O)O)[C@@H](O[C@@H]7OC(CO)C(O)C(O)C7O)C(O)[C@H]6O[C@@H]6OC(CO)C(O)C(O)C6O)[C@](C)(CO)C5CC[C@@]43C)C2CC1(C)C (stereo partly drawn)	-13.5%
Cc1ccc(Cn2ccc(NC(=O)c3nc4ncccn4n3)n2)cc1	2.0%
CCOc1ncccc1C(=O)Nc1ccc2c(C)cc(=O)oc2c1	?
O=C(Cn1cc2c(n1)CCCC2)NC1CCCCCC1	13.9%
COc1cc(NC(=O)CN(C)S(=O)(=O)c2ccc(C)cc2)cc(OC)c1	-17.0%
Cc1c(NC(=O)CN2CCN(C(c3ccccc3)c3ccccc3)CC2)c(=O)n(-c2ccccc2)n1C	3.6%
CCOc1ccc(N(C)S(=O)(=O)c2ccc3[nH]cc(C(=O)NCC4CCCO4)c(=O)c3c2)cc1 (stereo not drawn)	?
Cc1cc(C)c(C2C(C#N)=C(N)Oc3n[nH]c(C)c32)cc1CN1CCCC1 (stereo not drawn)	-5.2%
CCCCCCCCCCCCCCCCCCNC(=O)OC[C@@H](COP(=O)([O-])OCC[n+]1ccsc1)OC	-9.1%
CCn1c(C(=O)N2CCC(C(=O)NCCCSC3CCCCC3)CC2)cc2sccc21	-6.5%
COc1ccc2[nH]c(=O)c(CN(C(=O)c3ccccn3)C3CCCCC3)cc2c1	?
CCOC(=O)c1sc(NC(=O)c2ccc(Br)o2)cc1C	?
CC1(C)C/C(=N\O)c2cc3c(nc2C1)CCCC3	7.0%
Cc1cc(C)c(NC(=O)CCCN2CCOCC2)c(C)c1	0.4%
CCOc1cc(C)c(C(C)C)cc1S(=O)(=O)n1ccc(C)n1	-6.5%
O=C(Nc1ncnc2sc3c(c12)CCCCC3)c1ccco1	12.2%

# At a glance, some entries already given.
smiles	HSD17B inh
CCOc1cc(C)c(C(C)C)cc1S(=O)(=O)n1ccc(C)n1	-6.5%
O=C(Nc1ncnc2sc3c(c12)CCCCC3)c1ccco1	12.2%

# (further entries)
smiles	HSD17B inh
CCOc1ccc(CCNC(=O)C2CCCN(c3nn4c(=O)cc(C)nc4s3)C2)cc1 (stereo not drawn)	0.1%
CCS(=O)(=O)NCCCCc1ccccc1	-17.0%
Cc1ccc2[nH]c(=O)c(CN(Cc3ccc4c(c3)OCO4)Cc3nnnn3C3CCCC3)cc2c1	?
CNc1nc(SC)nc(N2CCOCC2)n1	-2.5%
Cc1cc(C(=O)Nc2cccnc2)no1	?
CC(C)C(=O)N(c1ccc(F)cc1)C1C=CS(=O)(=O)C1 (stereo not drawn)	5.7%
CC1CN(c2nc3ccccc3nc2C(C#N)C(=O)NC2CCCCC2)CC(C)O1 (stereo not drawn)	-0.9%
CCCCCC1C(=O)CCC1CC(=O)OC (stereo not drawn)	-5.7%
CCOC(=O)N1CCN(c2c(NCC3CCN(Cc4cccc(C)c4)CC3)c(=O)c2=O)CC1	11.4%
COCCN(CC(=O)NC1CCCCC1)C(=O)CSc1nc2ccccc2o1	19.4%
O=C(O)CCC/C=C\C[C@@H]1CO[C@H](C(F)(F)F)O[C@@H]1c1ccccc1O	19.5%
CC(Oc1ccc(Cl)cc1Cl)C(=O)Nc1ncccn1 (stereo not drawn)	-0.2%
COc1ccc(-n2nnnc2Sc2ccc(S(=O)(=O)N3CCOCC3)cn2)cc1	?
O=C(CCc1nc(-c2ccccc2F)no1)NCCN1CCc2ccccc2C1	5.6%
Cc1cc(NC(=O)CSc2nc3ccccc3c(=O)n2Cc2ccccc2)no1	3.3%
CCNc1nc(OCCNS(=O)(=O)c2cc(C)ccc2C)nc(N(C)C)n1	-6.1%
Cc1ccc(-c2noc(-c3ccccc3C(=O)N3CCN(C)CC3)n2)cc1	7.3%
CCOC(=O)c1ccc(NC(=O)c2cccc(S(=O)(=O)N3CCOCC3)c2)cc1	-13.0%
CC1(C)CC(CC(=O)Nc2ccccn2)C(=O)O1 (stereo not drawn)	6.4%
O=C(Nc1ncccn1)c1cccs1	6.5%
Cc1csc(NC(=O)C2CCC(C)(C(=O)O)C2(C)C)n1 (stereo not drawn)	-7.1%
COC(=O)CNC(=O)C1(C)C=CC2(CCCCC2)N1C(C)=O (stereo not drawn)	3.0%
O=c1c(CCc2ccccc2)nc2cncnc2n1Cc1ccccc1	7.0%
O=C(Nc1ccc2nn(-c3ccccc3)nc2c1)c1cccnc1	-4.4%
CCN(CC)CCCNC(=O)c1sc2nc(-c3ccc(F)cc3)cn2c1C	8.3%
Cc1ccnc(SCCn2c(Br)nc3c2c(=O)[nH]c(=O)n3C)n1	6.2%
CC(=NCc1ccc2c(c1)OCO2)C1=C(O)c2ccccc2C1=O	63.8%[activator]
CC(C)CC(c1nnnn1C1CCCC1)N1CCN(c2ccccc2F)CC1 (stereo not drawn)	8.0%
COc1ccc(C2=NOC(C(=O)NCc3ccc(F)cc3)C2)cc1 (stereo not drawn)	10.2%
CC(=O)NC12CC3CC(C1)CC(C(=O)OCC(=O)Nc1ncc(Cl)cc1Cl)(C3)C2	-17.0%
CCOc1ccc2c(c1)c1nnc(SCC3CCCO3)nc1n2C (stereo not drawn)	-20.9%
Cn1cccc1Cc1nnc(SCC(=O)NCc2ccccc2Cl)n1-c1ccc(F)cc1	37.8%[activator]
Cc1cccc(NC(=O)CN2C(=O)COc3ccc(Cl)cc32)c1	?
CN(C)CCN(Cc1ccc(Cl)cc1)c1ccccn1	1.0%[25.6 µM]
CCOC(=O)C1CCN(S(=O)(=O)c2c(C)n(C)c(=O)n(C)c2=O)CC1	8.5%
CN(C)c1nc2ccccc2c(N)c1-c1ccccc1	31.6µM*
